UUG fidelity: modulators of yeast start codon fidelity, primary screen, whole organism, S. cerevisiae, single point, plate reader | hit rate 0.13% among 350,000 | S. cerevisiae UUG-firefly luciferase reporter, luminescence/redox ratio | activity score, % at 18.7 µM;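 active = replicate mean at a twofold rise or more, about +100% in these data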;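 note: firefly luciferase made from a UUG start codon reports start codon fidelity; reporter light over untreated wells divided by growth signal over untreated wells; some hits fall short of that in this replicate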
CSC inhib: cancer stem cell viability inhibitors, primary screen, luminescence. AID 2717, 2010. inhibition, % at 7.5 µM. cancer stem cell-like cells viability. hit rate 1.1% among 300,000;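 active = mean at 75% or more and at least half the replicates too; inconclusive = mean and replicates disagree; tested in HMLE shEcad cells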;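 note: 0% = median of negative and 100% = median of positive control wells; the first replicate is given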
Rce1 inh: yeast Rce1p protease inhibitors, primary screen, biochemical, fluorescence, cell-free homogeneous; AID 2563, 2010; hit rate 0.27% among 290,000; yeast membranes, quenched prenylated peptide cleavage fluorescence; calls only; CAAX prenyl protease 2 (Saccharomyces cerevisiae (strain ATCC 204508 / S288c)), Q03530;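 active = fall in fluorescence gain of 50% or more versus controls, with final raw signal at or below 3038400; inconclusive = same 50% fall but final raw signal above 3038400; inactive = fall in fluorescence gain under 50%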;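 note: plate controls were neutral control wells for no effect and wells lacking membranes for full effect; tested at 10 µM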
PABP FP inh: PABP poly(A) RNA binding inhibitors, primary screen, biochemical, fluorescence polarization, uHTS; inhibition, % at 35 µM; Polyadenylate-binding protein 1 (Homo sapiens), P11940; hit rate 1% among 290,000; AID 2014, 2009;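 active = 50% or more with normal probe brightness, or confirmed in later tests; inconclusive = above 50% with abnormal brightness, or retests that disagree; inactive = below 50% or failed in later tests; about a fifth of its hits are not listed in these tables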;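 note: calls also rest on retests at 20 µM and on dose response follow-up; controls were probe without protein and protein plus probe with vehicle; some compounds called inactive have numbers as strong as hits; many hits fall short of the cut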
Target sequence (P11940 whole entry, looked up): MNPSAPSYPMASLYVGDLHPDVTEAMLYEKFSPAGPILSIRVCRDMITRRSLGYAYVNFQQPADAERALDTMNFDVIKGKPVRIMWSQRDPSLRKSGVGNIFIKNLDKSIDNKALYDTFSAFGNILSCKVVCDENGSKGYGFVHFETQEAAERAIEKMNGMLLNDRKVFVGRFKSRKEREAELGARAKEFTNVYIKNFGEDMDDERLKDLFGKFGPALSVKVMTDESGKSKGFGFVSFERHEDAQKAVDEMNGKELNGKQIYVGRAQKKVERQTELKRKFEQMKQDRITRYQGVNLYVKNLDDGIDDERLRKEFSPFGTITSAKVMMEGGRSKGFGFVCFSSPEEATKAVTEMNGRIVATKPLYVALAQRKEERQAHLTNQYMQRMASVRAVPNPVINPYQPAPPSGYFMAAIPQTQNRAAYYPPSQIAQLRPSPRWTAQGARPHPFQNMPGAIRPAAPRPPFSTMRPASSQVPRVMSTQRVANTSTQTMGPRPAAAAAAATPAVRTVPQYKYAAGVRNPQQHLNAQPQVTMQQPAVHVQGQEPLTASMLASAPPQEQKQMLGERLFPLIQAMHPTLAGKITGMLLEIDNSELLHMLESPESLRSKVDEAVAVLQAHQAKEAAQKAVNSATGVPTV
eIF4H inh: human eIF4H binding inhibitors, primary screen, translation initiation inhibitor project, biochemical, uHTS, fluorescence polarization; inhibition, % at 35 µM; Eukaryotic translation initiation factor 4H (Homo sapiens), Q15056; hit rate 0.94% among 290,000; eIF4H fluorescence polarization binding assay;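 active = 50% or more with normal probe brightness, or confirmed in later tests; inconclusive = above 50% with abnormal brightness, or retests that disagree; inactive = below 50% or failed in later tests; about a fifth of its hits are not listed in these tables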;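 note: calls also rest on retests at 20 µM and on dose response follow-up; 0% = protein and probe with vehicle and 100% = probe without protein; strong numbers were not always called active; many hits fall short of the cut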
MT1-MMP act inh: blockers of MT1-MMP proenzyme processing, primary screen, HT1080 RFP-PRO-GFP cells, GFP/RFP fluorescence; Matrix metalloproteinase-14 (Homo sapiens), P50281; GFP/RFP ratio fluorescence, overnight; percent of plate control window, DMSO zero; GFP/RFP ratio change, % at 20 µM; hit rate 0.061% among 360,000; AID 651647, 2012;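 active = GFP/RFP ratio change of at least 30% with cell ATP level not reduced by more than half and red fluorescence within 50% of control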; note: strong numbers were not always called active
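Assay system: HT1080 RFP-PRO-GFP cells. Benchmarks: DMSO vehicle wells and RFP-L50D-GFP reporter cell wells. Times: overnight cell settling, then overnight compound exposure, 37 °C, 5% CO2. Compound: 20 µM single dose, 1% DMSO. Read-out basis: GFP/RFP fluorescence ratio.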
Env fusion inh: inhibitors of HIV-1 Env-driven cell-cell fusion, primary screen, HeLa-JRFL effector, CEM21 target cells, luciferase; inhibition, % at 12.3 µM; AID 651610, 2012; hit rate 1.1% among 360,000;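 active = mean replicate inhibition score of at least 50 and every replicate individually at or above 50; inconclusive = only one of the two criteria met; inactive = mean below 50 and not all replicates reaching 50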;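 note: 0% = plate neutral controls and 100% = maraviroc near 300 nM; one replicate is shown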
eIF4H inh retest: second read-out of eIF4H inh, no call of its own (marks repeat the call); inhibition, %; compound at 20 µM; confirmation average;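 mean of two retest wells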
PABP FP inh retest: also measured in PABP FP inh; calls as there; inhibition, %; compound at 20 µM; confirmation repeats;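 mean of two retest wells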
MT1-MMP act inh RFP: recorded beside MT1-MMP act inh, whose call it bears; RFP signal change, %; measured here: RFP expression control read;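 0 = vehicle wells; hits needed this value within 50% of zero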
Starred values were filed as active, the others as inactive; i = inactive; ? = inconclusive; . = no result given. An excerpt, so the mix of outcomes need not match the whole.

SMILES	UUG fidelity	CSC inhib	Rce1 inh	PABP FP inh	eIF4H inh	MT1-MMP act inh	MT1-MMP act inh RFP	Env fusion inh	others
N#CCCN(C(=O)COC(=O)Cc1c[nH]c2ccccc12)c1ccccc1	-2	1	i	.	.	-1	2	-1
CCOC(=O)[C@@H]1[C@H]2COc3cc(OC)ccc3[C@H]2N2C(=O)N(c3ccc(OC)cc3)C(=O)[C@]12C	-9	-18	.	.	.	0	3	-120
Cc1ccc(S(=O)(=O)Nn2c(C)ccc2C)cc1	-15	-4	i	26	19	-2	8	.
CCCCC(=O)NCc1ccc2c(c1)cc(C)n2C	-8	7	i	77	72	47*	44*	-65	eIF4H inh retest=21;PABP FP inh retest=40
CCCn1nc(C(=O)NNC(=O)CCCOc2ccc(OC)cc2)c2ccccc2c1=O	-11	4	.	.	.	-3	-6	-6
CCN1CCN(C(=O)c2ccc(COc3ccc(Cl)cc3)o2)CC1	.	-8	i	-2	2	2	-2	.
CN(CC(=O)Nc1ccc(Cl)cc1)C(=O)C1CCCC1	-11	.	.	.	.	6	-2	-8
Cc1ccc(C(=O)N/C(=C/c2ccccc2)C(=O)NCc2ccncc2)cc1	0	-10	i	-11	-5	-2	-3	2
Cc1csc(SCc2c(C(=O)O)oc3ccccc23)n1	-18	11	i	.	.	4	2	9
CCOCCCNC(=O)CCc1ccc(-n2cnc3cccnc32)cc1	-11	2	i	?	?	-4	5	36
O=[N+]([O-])c1cc([N+](=O)[O-])c(N2CCOCC2)cc1NCc1ccccc1	-17	40	i	6	-3	6	-4	-133
Cc1cc(Nc2ccccc2Br)n2nc(C)nc2n1	-1	-8	i	5	-1	2	-1	-17
O=C(NCCc1cccs1)C12CN(Cc3ccccc3)CC1C(c1cccc([N+](=O)[O-])c1)=NO2 (stereo not drawn)	-18	-3	i	4	-12	12	-10	-46
O=C(COc1ccc(Cl)cc1Cl)N(C1CCCCC1)C1CCS(=O)(=O)C1 (stereo not drawn)	-5	-5	.	.	.	-1	-3	.
N#Cc1c(NC(=O)CSc2ncn[nH]2)sc2c1CCCC2	-31	15	i	-4	8	-8	-12	-5
Cn1cccc1Cc1nnc(SCC(=O)Nc2cccc(F)c2)n1-c1ccc(F)cc1	-9	-5	i	-19	-5	-11	2	-22
O=S1(=O)C=C(SCc2ccc(F)cc2)Nc2ccccc21	.	14	i	33	4	-6	1	-7
O=C(CN1CCN(c2ccccn2)CC1)Nc1nc2ccccc2s1	-9	-15	i	-5	-3	4	-6	-12
COc1ccccc1NC(=O)Cc1nnc(SCC(=O)Nc2ccccc2F)n1C	-21	-6	i	-25	1	1	-3	12
Cc1cc(C(=O)O/N=C(\N)c2ccncc2)ccc1[N+](=O)[O-]	.	27	i	-4	4	3	-4	-50
O=C(O)Cc1cc2c(s1)CCCCC2	-5	-3	i	0	-12	4	2	12
CCCC1CC(=O)OC1(C)C(=O)CSc1n[nH]c(-c2ccccc2)n1 (stereo not drawn)	.	-20	i	6	-10	.	.	.
Nc1nc2c(ncn2[C@@H]2O[C@H](CNCc3cnc(N4CCOCC4)nc3)[C@@H](O)[C@H]2O)c(=O)[nH]1	-10	.	.	.	.	1	2	9
Cc1ccnc(NC(=O)CCC(=O)N(CC(=O)NCCc2ccccc2)Cc2cccs2)c1	-1	-14	i	4	-5	-1	0	21
O=C(/C=C/c1ccco1)N1CCN(S(=O)(=O)c2cccc([N+](=O)[O-])c2)CC1	-8	16	.	.	.	-2	-1	.

The results go on:
SMILES	UUG fidelity	CSC inhib	Rce1 inh	PABP FP inh	eIF4H inh	MT1-MMP act inh	MT1-MMP act inh RFP	Env fusion inh	others
COc1ccccc1NS(=O)(=O)c1cc(C(=O)NCC(c2ccc(F)cc2)N2CCOCC2)ccc1C (stereo not drawn)	-1	.	i	.	.	-4	-3	3
CCOc1ccc(NC(=O)C2CCC(C)(C(=O)O)C2(C)C)cc1 (stereo not drawn)	-9	-18	i	?	130*	5	5	.	eIF4H inh retest=77*
Cc1[nH]c(=O)c(Cc2ccccc2)c(O)c1C#N	-15	-2	i	.	.	2	6	-3
Cn1c(NCc2ccccc2F)nc2cc(-c3cccc(C(F)(F)F)c3)sc2c1=O	-14	.	.	.	.	0	-8	17
CCC(=O)Nc1cccc(C2=NOC3(C2)C[C@@H](C(N)=O)N(C(=O)C2(C)CC2)C3)c1 (stereo partly drawn)	-18	-4	i	8	10	3	3	-18
O=C(NCC1CCCO1)c1csc(Nc2cccc3ccccc23)n1 (stereo not drawn)	.	11	i	8	1	1	-1	25
O=C(Nc1cccc(C(F)(F)F)c1)c1c(O)c2ccccc2[nH]c1=O	-13	-10	i	0	2	0	0	.
Cc1cccc(N/N=C/c2ccc(C)s2)c1	-15	8	i	-1	0	-2	0	-5
Cc1ccc(-c2nn(-c3ccccc3)cc2C2CC(c3cccs3)=NN2C(=O)CCC(=O)O)cc1 (stereo not drawn)	.	-9	i	-7	-5	4	2	-19
CN(CC1CCCN(CCc2cccc(C(F)(F)F)c2)C1)C(=O)c1ccco1 (stereo not drawn)	-8	8	i	-1	10	4	3	9
CCC1(CC)SC(N)=NC1=O	-21	.	.	.	.	-1	3	-3
CCOc1ccc(NC(=S)N(CCc2c(C)[nH]c3ccc(C)cc23)Cc2ccco2)cc1	-24	6	i	8	3	-6	-2	-15
CC(O)[C@H]1CNC(=O)C(=O)N1CCC12CC3CC(CC(C3)C1)C2 (stereo partly drawn)	7	-4	i	2	8	1	4	-21
Cc1c(C(=O)Nc2ccc3c(c2)OCCO3)oc2ccc(Br)cc12	-6	10	.	.	.	.	.	-54
COc1ccc(NC(=O)C2CCN(C(=O)c3cccs3)CC2)c(OC)c1	-25	-16	i	-6	-13	-1	1	22
COC(=O)c1cccc(COC(=O)c2ccccc2NC(=O)c2ccco2)c1	.	1	i	7	6	-5	-6	-12
COc1ccc([C@H]2CC(=O)C=C(c3cc(C)ccc3OC)C2)cc1	-13	56	.	.	.	-1	-6	-13
CCOc1ccccc1NC(=O)c1cc(CC(C)C)oc1C	-3	3	i	-15	4	-7	-4	-24
Cc1ccc(C)n1-c1sc2c(c1C#N)CCCC2	-16	-9	i	0	7	-1	3	20
CCC(Sc1ncnc2c1c(-c1ccccc1)cn2-c1ccc(OC)cc1)C(=O)OC (stereo not drawn)	-14	15	i	0	-3	-5	-5	23
CCCCCCc1c(C)[nH]c2nc3ccccc3n2c1=O	.	-13	i	7	21	-1	-3	-21
CC(=O)c1c(C)[nH]c(C(=O)N2CC(C)CC(C)C2)c1C (stereo not drawn)	-4	6	i	-7	-10	2	0	0
CC(Oc1ccc2c(-c3ccccc3)cc(=O)oc2c1)C(=O)NCC(O)c1ccccc1 (stereo not drawn)	-4	-17	i	-4	-5	-2	-4	.
CNC(=S)NCCc1cc2c(OC)ccc(OC)c2[nH]c1=O	-27	-13	i	2	1	2	4	-16
O=C(C/C=N/OCc1ccccc1F)c1cnc(-c2ccc(Cl)cc2)s1	-27	.	i	2	3	-2	0	.

Next compounds follow.
SMILES	UUG fidelity	CSC inhib	Rce1 inh	PABP FP inh	eIF4H inh	MT1-MMP act inh	MT1-MMP act inh RFP	Env fusion inh	others
Nc1c(Cl)cc(C2=NCCn3c2c2ccccc2[n+]3[O-])cc1Cl	27	-15	i	.	.	-4	2	.
O=c1[nH]c2ccc(Cl)cc2c(-c2ccccc2)c1N1CCN(CCO)CC1	.	-3	i	-9	2	-2	-3	-20
O=C(NCCS(=O)(=O)NCCc1ccccc1)c1ccccc1	-1	2	i	.	.	-2	1	10
O=C(Cn1cnc2c(nnn2-c2ccccc2)c1=O)N1CCCc2ccccc21	-14	-7	i	-6	-11	2	-2	6
C#CCN(C[C@H]1[C@H](OC(=O)NCc2ccc(OC)c(OC)c2)[C@H](OC(=O)NCc2ccc(OC)c(OC)c2)C[C@@H](C(=O)OC)[C@H]1C(=O)OC)S(=O)(=O)c1ccc(C)cc1	-16	.	.	.	.	1	-2	3
CN(Cc1ccccc1)S(=O)(=O)c1ccc(NC(=O)c2ccccc2C(=O)O)cc1	.	5	.	.	.	3	2	-2
Cc1nn(CC(=O)Nc2cc(S(=O)(=O)N(C)C)ccc2Cl)c(C)c1[N+](=O)[O-]	-18	9	i	7	-2	3	0	4
Clc1ccc2nc3ccccn3c2c1	8	-8	i	-1	-8	2	1	-27
COCCCNC(=O)C1CCN(c2ncccn2)CC1	-10	1	i	-6	-1	-1	2	9
O=C(CSc1nnc(-c2ccccc2O)n1Cc1ccccc1)NNC(=O)c1ccccc1O	.	133*	i	2	-8	8	5	12
COc1ccc(-c2nc(C#N)c(NCc3ccc(C)cc3)o2)cc1OC	10	-6	?	-17	0	0	-18	.
COc1cc(NC(=O)c2cc(-c3ccccc3Cl)on2)cc(OC)c1OC	-25	49	i	-3	-4	-5	-20	-69
CN1CCN(C(=O)c2ccc(-n3cccc3)cc2)CC1	20	11	i	0	-5	6	3	-22
CCc1ccc(NC(=O)C(C)OC(=O)c2cc(=O)[nH]c3ccc(S(=O)(=O)Nc4ccc(F)cc4)cc23)cc1 (stereo not drawn)	.	20	i	-1	-2	-7	5	17
O=C(CNC(=O)C(c1ccccc1)c1ccccc1)N/N=C\c1ccc2c(c1)OCO2	.	-3	i	7	10	-1	2	-3

Taken from the listing for reference:
SMILES	UUG fidelity	CSC inhib	Rce1 inh	PABP FP inh	eIF4H inh	MT1-MMP act inh	MT1-MMP act inh RFP	Env fusion inh	others
CN(Cc1ccccc1)S(=O)(=O)c1ccc(NC(=O)c2ccccc2C(=O)O)cc1	.	5	.	.	.	3	2	-2
Cc1nn(CC(=O)Nc2cc(S(=O)(=O)N(C)C)ccc2Cl)c(C)c1[N+](=O)[O-]	-18	9	i	7	-2	3	0	4
Clc1ccc2nc3ccccn3c2c1	8	-8	i	-1	-8	2	1	-27
COCCCNC(=O)C1CCN(c2ncccn2)CC1	-10	1	i	-6	-1	-1	2	9
O=C(CSc1nnc(-c2ccccc2O)n1Cc1ccccc1)NNC(=O)c1ccccc1O	.	133*	i	2	-8	8	5	12
COc1ccc(-c2nc(C#N)c(NCc3ccc(C)cc3)o2)cc1OC	10	-6	?	-17	0	0	-18	.
COc1cc(NC(=O)c2cc(-c3ccccc3Cl)on2)cc(OC)c1OC	-25	49	i	-3	-4	-5	-20	-69
CN1CCN(C(=O)c2ccc(-n3cccc3)cc2)CC1	20	11	i	0	-5	6	3	-22
CCc1ccc(NC(=O)C(C)OC(=O)c2cc(=O)[nH]c3ccc(S(=O)(=O)Nc4ccc(F)cc4)cc23)cc1 (stereo not drawn)	.	20	i	-1	-2	-7	5	17
O=C(CNC(=O)C(c1ccccc1)c1ccccc1)N/N=C\c1ccc2c(c1)OCO2	.	-3	i	7	10	-1	2	-3

Assay outcomes: PubChem BioAssay, several laboratories
